# Screens: PubChem, National Center for Advancing Translational Sciences (NCATS)
# GLA inh pH 4.5 – inhibitors of human alpha-galactosidase A at pH 4.5 | 230,000 tested, under 10 active | activity change, negative = inhibition, % at 105 µM | P06280 | purified enzyme, 4-MU-alpha-Gal fluorescence, pH 4.5 | AID 1467; inconclusive = small, poorly fitted or top-dose-only inhibition, or a rising curve; inactive = flat fitted curve, though single readings scatter; no compound was filed as active;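 note: 0% = full activity with enzyme and -100% = basal without enzyme; dose as in the result columns while the protocol names 77 µM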
# Target sequence (P06280 whole entry, looked up): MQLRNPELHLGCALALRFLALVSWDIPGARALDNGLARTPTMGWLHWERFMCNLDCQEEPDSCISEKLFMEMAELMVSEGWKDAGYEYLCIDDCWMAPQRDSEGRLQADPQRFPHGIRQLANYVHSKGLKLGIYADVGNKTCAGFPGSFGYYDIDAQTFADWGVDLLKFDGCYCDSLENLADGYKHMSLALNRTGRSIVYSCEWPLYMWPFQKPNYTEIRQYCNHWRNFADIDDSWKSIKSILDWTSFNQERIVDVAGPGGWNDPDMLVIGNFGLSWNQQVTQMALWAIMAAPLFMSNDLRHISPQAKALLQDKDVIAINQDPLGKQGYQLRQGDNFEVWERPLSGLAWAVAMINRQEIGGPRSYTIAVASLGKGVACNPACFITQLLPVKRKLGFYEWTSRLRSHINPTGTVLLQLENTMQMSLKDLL
# Rango dissoc inh – inhibition of RanGTP-driven Rango-importin beta dissociation | O95149+P62826 | Biochemical FRET Rango-importin beta, RanGTP-induced dissociation | Potency, µM (doses to about 46.1 µM), inactives show at the highest dose activity change, negative = inhibition | 340,000 tested, 0.071% active; active means falling FRET ratio curve, often poorly fitted, with flat reads before Ran was added; inconclusive means other falling curves, or compound fluorescence or quenching; inactive means flat or rising ratio curve;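 note: potency is the fitted concentration of half-maximal effect; % of control where 0% means no effect; nearly all actives have a fitted effect of over 45% in size; -100% = wells without RanGTP and RCC1; the record marks most hits as doubtful in a second field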
#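 Compounds sat 5 min at room temperature with 0.1 uM Rango biosensor plus 0.25 uM importin beta, then FRET pre-read. RanGTP-RCC1 (0.6 uM Ran, 2mM GTP, 0.2 uM RCC1) added for 45 min, and the CFP/YFP post-read measured blocked complex dissociation.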
# Rango complex inh – Rango-importin beta binding inhibition; Q14974; Rango CFP/YFP FRET sensor + importin beta, 45 min; Potency, µM (top dose mostly 92.2 µM), without a hit: at the top dose inhibition of complex formation; 340,000 tested, 0.031% active; active = rising FRET ratio curve, often small or poorly fitted; inconclusive = mostly compound fluorescence or quenching in the first reads; inactive = flat curves in all reads;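 note: potency is the fitted concentration of half-maximal effect; 0% = DMSO wells and 100% = buffer wells lacking importin beta; nearly all actives have a fitted effect of over 15% in size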
#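 Inhibition scored from the CFP 486 nm/YFP 530 nm FRET ratio 45 min after adding 0.125 microM importin beta to 50 nM Rango biosensor preincubated 5 min with compound (room temperature, PBS with DTT, Tween-20, BSA). No-importin wells as positive control.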
# miR-21 FLuc – raises the signal of a miR-21 reporter; HeLa miR-21 FLuc reporter, luciferase, 48 h; 340,000 tested, under 10 active; Potency, µM (series often up to 38.3 µM), for the others: at the highest dose reporter change, positive = more light; AID 2288; active = well fitted rising curve with a large enough effect; inconclusive = small, poorly fitted or top-dose-only effect; inactive = no such curve, though single readings can be large or run the other way;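 note: % of control where 0% means no effect; miR-21 action dims this reporter so a rising signal means less miR-21 action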
#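 HeLa miR-21-FLuc reporter line, endogenous miR-21; 2000 cells/well in DMEM/10% FBS; compound titration up to ~40uM final, 48 h, 37 degree Celsius; luciferase detection reagent, 15 min lysis, CCD luminescence.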
# * = called active by the depositor; u = inconclusive; x = not tested or not shown; & = joins results of further samples. An excerpt; rates above refer to the full screens.
# Results follow in this order: GLA inh pH 4.5	Rango dissoc inh	Rango complex inh	miR-21 FLuc
Cc1ccc(N)c(C(O)(C(F)(F)F)C(F)(F)F)c1
→ -1	6%	0.0%	-5%
O=C(c1ccccc1N1CCOCC1)N1CCCC(Nc2ccc(F)cc2)C1 (stereo not drawn)
→ x	u	-2.1%	-1%
CCOC(=O)c1nnn2c3ccccc3c(=O)n(C)c12
→ 7	1%	-0.2%	-12%
COC(=O)CCNS(=O)(=O)c1ccc2nsnc2c1
→ x	1%	-1.0%	x
O=S1(=O)N=C2CCCCCN2C(c2ccc(F)cc2)N1 (stereo not drawn)
→ 2	16%	-2.9%	-2%
CCCn1nc(NC(=O)c2cccs2)c2cc3ccccc3nc21
→ 11	u	u	0%
COc1cc(CNC2CCCC2)cc(Cl)c1OCc1ccccc1Cl
→ -23	-10%	-0.3%	7%
Cc1noc(C)c1C(=O)N1CCN(S(=O)(=O)c2cccc(Cl)c2Cl)CC1
→ 3	-10%	1.6%	2%
COC(=O)c1ccc(C(=O)OC)c(NC(=S)N2CCCC(CO)C2)c1 (stereo not drawn)
→ 10	-6%	-3.3%	5%
CC(Cc1n[nH]c(=S)o1)c1ccccc1 (stereo not drawn)
→ 4	-4%	4.8%	3%
Cc1ccc(-c2ccc(/C=N/c3ncn[nH]3)o2)cc1Cl
→ 4	5%	0.5%	-13%
CCN(CC)CCCNC(=O)c1[nH]c2ccccc2c1Sc1ccc(Cl)cc1
→ x	-11%	-4.3%	-6%
Cc1nc2ccccc2n1CSc1ccccc1
→ 0	2%	-2.0%	-2%
N=c1sccn1CC(=O)Nc1ccccc1Cc1ccccc1
→ -2	2%	1.1%	4%
[O-][n+]1c2ccccc2c2n1CCN1CCOC21c1ccc(Cl)cc1 (stereo not drawn)
→ x	u	u	x
CCOc1ccccc1NC(=O)CCNC(=O)c1ccc(Cl)cc1
→ -9	0%	3.3%	6%
COc1cccc(-c2ccc3c(N)c(C(=O)NC4CC4)sc3n2)c1
→ -4	u	u	-27%
Cc1ccc(S(=O)(=O)N(Cc2cc3cc4c(cc3[nH]c2=O)OCCO4)CC2CCCO2)cc1 (stereo not drawn)
→ -1	4%	-2.2%	-5%
CC[C@@]1(c2ccccc2)C(=O)N(C(=O)OC)N1C(=O)OC
→ x	-5%	u	0%
CCOC(=O)C1=C(CN2CCOCC2)NC(=O)NC1c1cc(C)ccc1C (stereo not drawn)
→ 1	-6%	0.0%	-2%
COc1cccc(/C=N/Nc2nc(Nc3ccc([N+](=O)[O-])cc3)nc(N3CCCC3)n2)c1O
→ -12	11%	5.0%	19%
CN(Cc1ccccc1)c1nc2nonc2nc1N1CCCC(CN2CCCC2=O)C1 (stereo not drawn)
→ -16	-11%	3.6%	-1%
Cc1ccccc1NC(=O)c1sc2nc(N3CCOCC3)c3c(c2c1N)CCCC3
→ x	-1%	-1.0%	-37%
COC(c1ccccc1)c1nnc(CCC(=O)N(C)CCc2ccccc2)o1 (stereo not drawn)
→ 8	-11%	-2.2%	-6%
COC(=O)Cn1cnc2c(cnn2-c2ccc(OC)cc2)c1=O
→ x	8%	4.0%	-5%
CC1CCN(C(=O)c2ccccc2SCC(=O)NCC2CCCCC2)CC1
→ x	-1%	-0.1%	x
CC(C)N(C(=O)COC(=O)c1cccc(N(C)C)c1)c1ccccc1
→ x	-13%	-0.2%	15%
NC(=O)c1cc([N+](=O)[O-])c(Cl)cc1NCc1cccnc1
→ x	-9%	-4.2%	x
c1ccc(Nc2cccc3c(Nc4ccccc4)cccc23)cc1
→ u	-11%	-2.6%	-5%
N#Cc1cccc(NC(=O)COC(=O)CCc2nc3ccccc3c(=O)[nH]2)c1
→ 11	-14%	3.9%	1%
O=C(NCCCN1CCOCC1)C(C(=O)NCCCN1CCOCC1)c1ncc(C(F)(F)F)cc1Cl
→ -3	10%	0.6%	1%
Cc1ccc(CSC2=CS(=O)(=O)c3ccccc3N2)cc1
→ 0	3%	2.6%	-4%
CCOc1cc2c(cc1OCC)C(C(=O)O)C(c1cc(Br)c(O)c(OC)c1)N(C)C2=O (stereo not drawn)
→ 1	6%	-0.3%	-4%
Cn1nc(N)c2c(-c3ccc(Cl)cc3)c(C#N)c(N)nc21
→ -2	-10%	-1.3%	-8%
O=C1N(Cc2ccc(F)cc2)CCN1c1ccc(F)cc1
→ -9	0%	1.1%	-48%
COC(=O)CN1C(=S)N(c2ccc(Cl)cc2)C(=O)C1CC(=O)Nc1ccccc1 (stereo not drawn)
→ -24	5%	0.3%	-2%
Cc1cc(C)cc(NC(=O)Cn2c(-c3ccccc3Cl)nc3ccccc32)c1
→ 0	-16%	2.6%	-15%
CC(OC(=O)CNC(=O)c1ccc(F)cc1)C(=O)Nc1ccc(S(=O)(=O)N2CCOCC2)cc1 (stereo not drawn)
→ x	-3%	-6.4%	x
N#C/C(=C\c1cccnc1)c1nc2c(s1)CCCC2
→ 3	u	u	-69%
Cc1ccc(N(C)S(=O)(=O)c2c[nH]c3ccc([N+](=O)[O-])cc23)cc1
→ x	-8%	0.0%	11%
Cc1cc(Cl)ccc1OC(C)C(=O)Nc1ccc(C(=O)Nc2ccccc2C(=O)O)cc1 (stereo not drawn)
→ x	0%	-0.1%	23%
CCOc1[nH]n(-c2ccccc2)c(=O)c1C=NCc1cccnc1
→ -4	-9%	7.1%	3%
CCOC(=O)c1nc(-c2ccc(OC)c(OC)c2)cnc1C#N
→ 6	-30%	u	-6%
CCN(CCn1cccn1)C(=O)c1cc(COc2c(F)cccc2F)on1
→ 6	7%	6.1%	-9%
CCC(C)NC(=O)Cn1cnc2sc(C)c(S(=O)(=O)N3CCN(c4ccccc4OC)CC3)c2c1=O (stereo not drawn)
→ x	-17%	0.4%	3%&-1%
COc1cc(CN2CCN(Cc3ccc(C)cc3)C(CCO)C2)cc(OC)c1O (stereo not drawn)
→ 6	4%	5.0%	-5%
N#C/C(=C\c1ccc(OCc2ccccc2)cc1)C(N)=O
→ 1	1%	2.3%	-44%
Cc1ccc(-n2c([O-])nc(-[n+]3ccccc3)c2C=O)cc1
→ 0	4%	-3.9%	-4%
CCOC(=O)CCCNC(=O)CCCNC(=O)C(c1ccccc1)c1ccccc1
→ x	-1%	-0.5%	2%
CCC1CCCN1Cn1cnc2c([nH]c3ccc(Cl)cc32)c1=O (stereo not drawn)
→ 2	-16%	0.3%	-10%
C=CCC1CCCC(=O)N2CC[C@H](O)C12 (stereo partly drawn)
→ -5&1	16%	-1.9%	-1%
CC1(c2ccc(OC(F)F)cc2)NC(=O)N(CC(=O)c2ccc3c(c2)OCO3)C1=O (stereo not drawn)
→ x	-1%	1.9%	x
O=C(c1ccc(Cl)cc1)c1c[nH]c(C(=O)C(Cl)(Cl)Cl)c1
→ 0	4%	-0.1%	0%
COc1ccc(CCNC(=O)Nc2ccc(F)cc2F)cc1OC
→ x	-10%	1.3%	-6%
CC(C)(C#N)NC(=O)C(=O)c1c(-c2ccccc2)cc2ccccn12
→ 0	2%	1.8%	-4%
CC1Cc2ccccc2N1CC(=O)Nc1ccc2c(c1)OCO2 (stereo not drawn)
→ 1	-3%	2.7%	1%
O=C(COC(=O)C1CCC1)NCCc1ccc(Cl)cc1Cl
→ x	-2%	-1.7%	-5%
CC(Nc1cc(N2CCN(C(=O)C(C)(C)C)CC2)ccc1[N+](=O)[O-])c1ccccc1 (stereo not drawn)
→ -12	0%	-1.3%	14%
CN(Cc1ccccc1)C(=O)c1ccc(NC(=O)Cc2ccc(NC(=O)C3CCN(C(=O)C4CCCCC4)CC3)cc2)cc1
→ x	5%	-3.4%	x
O=C(Nc1ccccc1N1CCOCC1)c1cccc(S(=O)(=O)N2CCOCC2)c1
→ x	12%	-3.2%	x

# Filtered by structure: the compounds so far containing a CF3 group
# Results follow in this order: GLA inh pH 4.5	Rango dissoc inh	Rango complex inh	miR-21 FLuc
Cc1ccc(N)c(C(O)(C(F)(F)F)C(F)(F)F)c1
→ -1	6%	0.0%	-5%
O=C(NCCCN1CCOCC1)C(C(=O)NCCCN1CCOCC1)c1ncc(C(F)(F)F)cc1Cl
→ -3	10%	0.6%	1%

# (next part)
# Results follow in this order: GLA inh pH 4.5	Rango dissoc inh	Rango complex inh	miR-21 FLuc
COCC(C)n1c(C)cc(C(=O)CSc2cc(C)c3ccccc3n2)c1C (stereo not drawn)
→ 0	-5%	-0.2%	-1%
O=C(OCN1C(=O)c2ccccc2C1=O)c1ccccc1
→ -7	6%	-0.9%	2%
O=C(NCCc1csc(-c2ccccc2)n1)c1ccccc1F
→ -7	9%	-0.5%	-19%
Cc1ccc(CN(Cc2ccccc2)C(=S)Nc2ccccc2C)o1
→ -11	0%	-1.9%	1%
O=C(Nc1cccc(F)c1)C1CCCN1S(=O)(=O)c1cccc2cccnc12 (stereo not drawn)
→ 0	-1%	2.0%	-5%
CCc1ccc(C(=O)Nc2ccc(S(=O)(=O)Nc3nc(C)cc(C)n3)cc2)o1
→ -2	0%	-4.2%	0%
CC1(C)S[C@@H]2[C@H](NC(=O)COc3ccccc3)C(=O)N2C1C(=O)OCC1CCCCC1 (stereo partly drawn)
→ x	-9%	-1.6%	x
COc1cc(C(=O)Nc2ccc(N(C)C)cc2)cc(OC)c1OC
→ 2	-14%	9.2%	-12%
COc1ccc(S(=O)(=O)N2CCOCC2)cc1NC(=O)c1ccc2c(c1)OCO2
→ x	4%	0.0%	x
Cc1cc(NC(=O)CCC(=O)N(CC(=O)NC2CCCC2)Cc2ccco2)no1
→ 5	14%	-3.1%	-5%
COCc1c(C(=O)N/N=C/c2ccc(C)o2)nnn1-c1nonc1N
→ x	1%	3.6%	0%
NC(=O)C1CCN(C(=O)CC2(CC(=O)O)CCCC2)CC1
→ x	6%	1.7%	0%
Cc1ccc(S(=O)(=O)N2CCN(CC(O)COc3ccccc3)CC2)cc1 (stereo not drawn)
→ x	1%	-1.0%	0%
CC(=O)NNc1cc(C)nc(NS(=O)(=O)c2ccc(C)cc2)n1
→ x	4%	5.4%	2%
O=C(OCCCN=C1NS(=O)(=O)c2ccccc21)c1ccc(F)cc1
→ 0	-9%	8.3%	-1%
Cc1ncc([N+](=O)[O-])n1CC(=O)NCc1ccccc1
→ -5	1%	0.4%	-2%
CN(CC(=O)N1CCc2ccccc2C1)S(=O)(=O)c1ccc2c(c1)c(=O)n(C)c(=O)n2C
→ 2	11%	1.0%	2%
COc1ccc(OC)c(N2C(=O)C(Cl)=C(N3CCOCC3)C2=O)c1
→ 3	-6%	2.1%	3%
OCCn1cnc2c(SCc3ccccc3)ncnc21
→ x	1%	1.5%	x
O=C1CCCN1c1cc(Cl)ccc1Cl
→ 6	-3%	4.9%	2%
COc1ccc(NC(=O)/C(C#N)=C/c2ccc[nH]2)c(OC)c1
→ x	u	u	-10%
Cc1noc(C)c1C(=O)NCc1ccccc1F
→ -4	-9%	-0.2%	-2%
CCOC(=O)C1=C(C)N(CC(C)C)C(=O)/C1=C\c1cccs1
→ -6	8%	-0.1%	-1%
O=S(=O)(NCCCNS(=O)(=O)c1c(F)cccc1F)c1ccc2c(c1)OCCO2
→ x	-5%	1.0%	x

# Full records, quoted from the list:
# CN(CC(=O)N1CCc2ccccc2C1)S(=O)(=O)c1ccc2c(c1)c(=O)n(C)c(=O)n2C across the screens: GLA inh pH 4.5: 2; Rango dissoc inh: 11%; Rango complex inh: 1.0%; miR-21 FLuc: 2%
# O=S(=O)(NCCCNS(=O)(=O)c1c(F)cccc1F)c1ccc2c(c1)OCCO2 across the screens: GLA inh pH 4.5: x; Rango dissoc inh: -5%; Rango complex inh: 1.0%; miR-21 FLuc: x
# COc1ccc(OC)c(N2C(=O)C(Cl)=C(N3CCOCC3)C2=O)c1 across the screens: GLA inh pH 4.5: 3; Rango dissoc inh: -6%; Rango complex inh: 2.1%; miR-21 FLuc: 3%
